Six1-Eya2 blk – qHTS Assay for Inhibitors of the Six1/Eya2 Interaction. Homeobox protein SIX1 (Homo sapiens) + Protein phosphatase EYA2 (Homo sapiens), …. AlphaScreen GST-Six1/His-Eya2 binding, biochemical; active compounds read low; control for the full effect not named in the record. activity change, % (concentration not given with the values). 360,000 compounds, 0.56% hits. AID 651725, 2012; in the data active = activity change below about -65%; inconclusive = about -30% to -65%; inactive = above about -30%; note: % is set by controls: 0 for no effect and ±100 for the full control effect
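Compounds are tested against tagged Six1 and Eya2 proteins bridged by glutathione donor and nickel acceptor beads; after a one-hour incubation at 37 °C without light, AlphaScreen emission is recorded.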
CtBP-E1A inh – qHTS Assay for Inhibitors of the CtBP/E1A Interaction; activity change, % (no concentration beside the values); AlphaScreen GST-E1A/His-CtBP binding, 1536-well; active compounds read low; control for the full effect not named in the record; CtBP / adenovirus E1A interaction (AlphaScreen); 340,000 compounds, 0.49% hits; in the data active means activity change below about -65%; inconclusive means about -30% to -65%; inactive means above about -30%; note: % is set by controls: 0 for no effect and ±100 for the full control effect
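Steps: dispense buffer (Tris pH 8.0, NaCl 300 mM, TCEP 1 mM, BSA, Tween 20); add 5X protein mix (GST-E1A, His-CtBP, 125 nM each); pin 23 nL compound; 2 h at 37 °C, dark; add 5X beads (50 ug/mL); 1 h; read.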
D2 ag – Beta-Arrestin HTS for Positive Allosteric Modulators of the Human D2 Dopamine Receptor: Agonists; D(2) dopamine receptor (Homo sapiens), P14416; DiscoveRx PathHunter D2 beta-arrestin, luminescence, 90 min; 100% = 57 uM dopamine signal; activation, % (concentration not given with the values); 360,000 compounds, 0.084% hits; in the data active = activation above about 40%; inconclusive = about 15% to 40%; inactive = below about 15%; note: the text of the record calls up to 30% inactive
Target sequence (P14416 whole entry, looked up): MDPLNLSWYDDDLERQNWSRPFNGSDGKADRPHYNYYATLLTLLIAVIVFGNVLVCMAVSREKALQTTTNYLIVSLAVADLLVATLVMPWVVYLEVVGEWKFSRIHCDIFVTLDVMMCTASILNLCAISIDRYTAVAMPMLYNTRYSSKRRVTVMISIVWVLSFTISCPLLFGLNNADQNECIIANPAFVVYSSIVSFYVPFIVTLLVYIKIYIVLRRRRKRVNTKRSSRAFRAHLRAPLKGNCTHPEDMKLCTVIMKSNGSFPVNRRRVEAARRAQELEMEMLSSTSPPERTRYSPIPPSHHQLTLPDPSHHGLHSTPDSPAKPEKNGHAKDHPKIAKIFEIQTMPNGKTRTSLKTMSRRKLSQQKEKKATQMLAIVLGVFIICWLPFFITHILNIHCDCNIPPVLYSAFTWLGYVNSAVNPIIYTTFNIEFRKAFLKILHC
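Agonist mode: compounds alone added to overnight-plated D2 PathHunter cells for 90 min at 37 C, with 57 uM final dopamine (EC100) defining full response. Beta-arrestin recruitment detected by chemiluminescent reagent, read after 1 h at ambient temperature.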
PINK1 modulator – A Quantitative High throughput Screen to Identify Chemical Modulators of PINK1 Expression; PINK1 immunofluorescence, high-content cytometry, 24 h; Potency, µM (highest dose often 76.6 µM), inactives show at the highest dose activation (PINK1 increase), hits mostly activators; 410,000 compounds, 0.2% hits; AID 624263, 2012; active = well fitted activation curve with a large enough effect; inconclusive = small, poorly fitted or top-dose-only effect; inactive = flat fitted curve, though single readings scatter; cell line not stated here;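 note: potency is the fitted concentration of half-maximal effect; % of control where 0% means no effect; nearly all actives have a fitted effect of over 65% in size; a mitochondrial uncoupler was the plate control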
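Measures PINK1 amount and localization on or inside mitochondria by immunofluorescence. Stable cells get compounds at 5 concentrations for 24 hours before fixation and staining; CCCP controls included.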
TRPML1 blocker – qHTS for Inhibitors of the Human Mucolipin Transient Receptor Potential 1 (TRPML1) | TRPML1-inducible cells, Ca2+ dye fluorescence, FDSS; active compounds read low; inhibition of EC80 agonist-evoked calcium signal | activity change, negative = inhibition, % (test concentration not listed) | 390,000 compounds, 0.02% hits; in the data active means activity change below about -50%; inconclusive means about -30% to -50%; inactive means above about -30%;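 note: stimulus is agonist 54-4 at its EC80 concentration; % is set by controls: 0 for no effect and ±100 for the full control effect; compound concentration not given in the record; the text of the record puts the active cut at -80%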
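TRPML1-DL cells, Tet-induced overnight (~16 h, 37 °C) at 1,500 cells/well, were loaded with Ca8 no-wash dye plus quencher for 45-90 min at room temperature. Compounds were pinned during FDSS kinetic reading; agonist 54-4 at EC80 (4 uM final) then added.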
TRPML1 ag – qHTS for Agonists of the Human Mucolipin Transient Receptor Potential 1 (TRPML1); 410,000 compounds, 0.12% hits; Mucolipin-1 (Homo sapiens), Q9GZU1; TRPML1-expressing cells, Ca2+ dye fluorescence, FDSS; host cell line not named in the record; reference of the full effect not given here; activation, % (no concentration beside the values); in the data active = activation above about 50%; inconclusive = about 30% to 50%; inactive = below about 30%; note: 0% is about no effect; the text of the record puts the active cut at 80%
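In this qHTS format, compounds were pin-transferred onto Ca8-dye-loaded TRPML1-DL cells induced with Tet overnight, and intracellular Ca2+ fluorescence was recorded kinetically for 110 s after a 10 s baseline. A subsequent 4uM final 54-4 (EC80) addition followed by a second 110 s read served as the antagonist phase.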
Numbers without * were called inactive; ? = inconclusive; · = no result given; [ ] = dose if it differs, or a comment. Outcome played no part in choosing rows; overall some 1% were active at least once.

Sample of the layout (4 entries):
Each structure is followed by: PINK1 modulator	CtBP-E1A inh	Six1-Eya2 blk	D2 ag	TRPML1 blocker	TRPML1 ag
> COc1cc(C(=O)N2CCCC(C)(C(=O)NS(=O)(=O)C3CC3)C2)cc(OC)c1OC (centres undefined)
    0.1%	-12.9	13.2	2.0	·	0.1
> O=C(CNC(=O)c1cccs1)NCC(=O)OCC(=O)c1ccc([N+](=O)[O-])cc1
    0.3%	2.3	-3.1	-3.4	-7.8	-1.1
> O=C(O)c1cccc(N2C(=O)CSC2c2ccccc2)c1 (centres undefined)
    1.8%	-3.0	0.7	-4.1	-1.3	0.1
> COc1cccc(/C(C)=N/Nc2ccc(S(=O)(=O)N3CCCCC3)cn2)c1
    1.2%	·	-16.0	-3.4	6.0	0.5

The whole of this part (from the top)
Each structure is followed by: PINK1 modulator	CtBP-E1A inh	Six1-Eya2 blk	D2 ag	TRPML1 blocker	TRPML1 ag
> COc1cc(C(=O)N2CCCC(C)(C(=O)NS(=O)(=O)C3CC3)C2)cc(OC)c1OC (centres undefined)
    0.1%	-12.9	13.2	2.0	·	0.1
> O=C(CNC(=O)c1cccs1)NCC(=O)OCC(=O)c1ccc([N+](=O)[O-])cc1
    0.3%	2.3	-3.1	-3.4	-7.8	-1.1
> O=C(O)c1cccc(N2C(=O)CSC2c2ccccc2)c1 (centres undefined)
    1.8%	-3.0	0.7	-4.1	-1.3	0.1
> COc1cccc(/C(C)=N/Nc2ccc(S(=O)(=O)N3CCCCC3)cn2)c1
    1.2%	·	-16.0	-3.4	6.0	0.5
> O=C(O)c1cccc(NC(=O)c2ccc3c(c2)C(=O)N(CC2CCCO2)C3=O)c1 (centres undefined)
    ·	3.2	-1.3	1.3	-10.7	-0.1
> C=CCn1cc(CN2CCC(C(=O)Nc3cccc(-c4cccc(F)c4)c3)CC2)c(C)n1
    -3.7%	3.2	-1.9	-1.0	-9.8	0.4
> CC(=O)Nc1ccc(NC(=O)C2Cc3c(-c4ccc(Cl)cc4)ccnc3O2)cc1 (centres undefined)
    -0.8%	0.2	-3.4	3.8	·	0.8
> CCN(C(=O)COC(=O)c1ccco1)c1cccc2ccccc12
    1.4%	·	-0.4	-3.5	-15.1	-0.3
> CCOCC(=O)Nc1nnc(C2CCCCC2)s1
    -0.3%	-2.6	0.5	-1.7	1.4	0.6
> O=C(COC(=O)C1=COCCO1)Nc1ccccc1
    2.7%	3.4	9.4	-1.3	5.0	-0.3

(more compounds)
Each structure is followed by: PINK1 modulator	CtBP-E1A inh	Six1-Eya2 blk	D2 ag	TRPML1 blocker	TRPML1 ag
> COc1ccc2[nH]c(CN3CCN(C(C)C)C(CCO)C3)c(C)c2c1 (centres undefined)
    -0.2%	1.5	4.2	-3.0	-6.4	-0.8
> CC1(C)CC2CC(C)(CN2c2ncnc3ccc(Br)cc23)C1 (centres undefined)
    1.1%	-17.4	-4.1	-3.9	-13.1	1.0
> CC(=O)Nc1c(C)nn(-c2ccccc2)c1N1CCC(C(=O)Nc2ccc(C)cc2Cl)CC1
    0.5%	·	·	·	18.7	-0.4
> COCCN1C(=O)c2ccccc2C(C(=O)N2CCN(c3ccccc3)CC2)C1c1ccc(F)cc1 (centres undefined)
    1.4%	-3.8	0.4	-1.4	-6.1	0.3
> Clc1cccc(N=C2NN=C(c3ccc4c(c3)OCCO4)CS2)c1
    ?	?	?	-3.4	6.7	-0.1
> CN(C)S(=O)(=O)c1ccc2c(c1)c(=O)c(C(=O)NCCCN1CCCCCC1)cn2C
    0.6%	-0.2	-6.8	1.9	-8.9	0.5
> O=c1ccn(C2CCCO2)c(=O)[nH]1 (centres undefined)
    3.3%	1.1	0.7	-1.2	-10.2	-0.1
> COc1ccc(-n2nnc(-c3nsc(NC(=O)c4ccc(C)c(C)c4)n3)c2C)cc1Cl
    8.8%	·	·	·	4.5	-0.2
> Cc1ccc(C(=O)N2CCN(C)CC2)cc1[N+](=O)[O-]
    -0.3%	·	7.0	6.5	-9.7	-0.3
> COc1ccc(NC(=O)CN(C)C(=O)C2=NN(c3ccccc3)C(=O)CC2)cc1
    -2.0%	·	3.3	-1.5	18.0	-0.5

Entries of single compounds from above:
`COCCN1C(=O)c2ccccc2C(C(=O)N2CCN(c3ccccc3)CC2)C1c1ccc(F)cc1` (centres undefined) in the list: PINK1 modulator = 1.4%; CtBP-E1A inh = -3.8; Six1-Eya2 blk = 0.4; D2 ag = -1.4; TRPML1 blocker = -6.1; TRPML1 ag = 0.3
`CC1(C)CC2CC(C)(CN2c2ncnc3ccc(Br)cc23)C1` (centres undefined) in the list: PINK1 modulator = 1.1%; CtBP-E1A inh = -17.4; Six1-Eya2 blk = -4.1; D2 ag = -3.9; TRPML1 blocker = -13.1; TRPML1 ag = 1.0

(listing goes on)
Each structure is followed by: PINK1 modulator	CtBP-E1A inh	Six1-Eya2 blk	D2 ag	TRPML1 blocker	TRPML1 ag
> Nc1ccn([C@@H]2O[C@H](CNCc3ccc(C#CCCO)cc3)[C@@H](O)[C@H]2O)c(=O)n1
    -0.2%	0.0	-7.9	-12.9	-25.0	-0.4
> COc1cccc2sc(N(CCN(C)C)C(=O)c3ccc4c(c3)CCCC4)nc12
    1.3%	-26.3	?	1.4	25.9	1.0
> Cc1ccc(S(=O)(=O)Nc2c(NC3CCCCC3)c3ccccc3oc2=O)cc1
    -2.2%	0.0	12.8	1.3	-13.8	4.5
> O=C(NC(=S)Nc1ccc(Br)cc1F)C1CCCCC1
    6.5%	0.1	3.0	-3.4	-5.7	0.9
> O=C(O)C1C2C=CC(C2)C1C(=O)NCc1ccc2c(c1)OCO2 (centres undefined)
    -1.6%[38.3 µM]	7.0	3.7	0.0	-19.7	0.6
> Cc1cc(Br)c(NC(=O)Cn2c([N+](=O)[O-])cnc2C)cc1C
    -0.2%	-20.3	-5.0	-3.5	7.3	0.3
> Cc1ccc2nc(-c3cccnc3)c(NC3CCCCC3)n2c1
    1.5%	-9.5	6.2	0.5	-21.5	2.0
> O=C(CSc1n[nH]c(=O)[nH]c1=O)Nc1ccccc1C(=O)c1ccccc1
    -0.9%	-1.1	0.5	0.9	-7.7	1.1
> Cc1cccc(C)c1NC(=O)c1cccc2c1-c1ccccc1C2=O
    14.5%	24.8	11.7	-3.9	12.1	-0.5
> Cc1ccc(C(=O)NNC(=O)C2CCN(c3nc(C)cc(C)n3)CC2)cc1
    -4.8%[38.3 µM]	0.2	-2.0	-1.1	1.4	0.4

(continued)
Each structure is followed by: PINK1 modulator	CtBP-E1A inh	Six1-Eya2 blk	D2 ag	TRPML1 blocker	TRPML1 ag
> Fc1cc(F)c(NC(=S)N2CCOCC2)c(F)c1
    1.2%	-0.2	6.7	-3.3	-11.9	-0.9
> CCN(CC)C(=O)CC(c1ccccc1)c1ccco1 (centres undefined)
    2.8%[38.3 µM]	6.1	0.8	-1.8	-0.7	2.9
> CCCCC(CC)CNC(=O)c1ccc2c(c1)OCO2 (centres undefined)
    ·	4.3	8.9	-1.0	-2.1	1.5
> CCc1ccc(NC(=O)CCS(=O)(=O)c2ccc3c(c2)n(C)c(=O)c(=O)n3C)cc1
    -1.0%	·	·	·	0.4	1.0
> Cc1ccc(NC(=O)CSc2nc(NS(=O)(=O)c3ccccc3)cc(=O)[nH]2)cc1
    4.0%	-2.6	?	-3.8	-14.2	-0.1
> COCCN1CCN(C(=O)C2CCC(=O)N(CCc3cccc(F)c3)C2)CC1 (centres undefined)
    3.3%	22.9	4.3	0.0	-2.2	0.5

Screening data: PubChem, National Center for Advancing Translational Sciences (NCATS)
